Bioassay records (PubChem)
VDR inh = Inhibitors of the vitamin D receptor (VDR): qHTS; Vitamin D3 receptor (Homo sapiens), P11473; VDR-SRC2-3 peptide fluorescence polarization, 2 h; Potency, µM, without a hit: max response, negative = inhibition, usual class: inhibitors; 400,000 compounds, 0.93% hits; AID 504847, 2011; active = well fitted inhibition curve with a large enough effect; inconclusive = small, poorly fitted or top-dose-only effect, or another doubt; inactive = no such curve, though single readings can be large or run the other way; also: series mostly up to about 120 µM
Target sequence (P11473 whole entry, looked up): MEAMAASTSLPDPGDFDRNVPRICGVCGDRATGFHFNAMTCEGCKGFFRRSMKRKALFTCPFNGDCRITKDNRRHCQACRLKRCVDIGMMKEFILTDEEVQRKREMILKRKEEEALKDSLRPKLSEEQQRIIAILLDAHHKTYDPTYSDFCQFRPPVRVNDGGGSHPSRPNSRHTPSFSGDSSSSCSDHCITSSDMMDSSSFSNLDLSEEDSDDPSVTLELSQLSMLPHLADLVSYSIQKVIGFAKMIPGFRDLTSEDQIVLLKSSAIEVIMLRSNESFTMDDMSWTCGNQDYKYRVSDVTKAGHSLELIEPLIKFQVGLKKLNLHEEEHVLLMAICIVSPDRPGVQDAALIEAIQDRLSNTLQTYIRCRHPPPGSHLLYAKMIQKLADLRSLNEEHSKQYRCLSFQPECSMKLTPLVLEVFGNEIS
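Fluorescence polarization assay of small-molecule disruption of VDR binding to coregulator peptide SRC2-3. Compounds and controls pin-transferred, then read after 2 h incubation at ambient room temperature.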
Starred values were filed as active, the others as inactive; ? = inconclusive; [ ] = remark or other dose. % is scaled to controls: 0 for no effect and ±100 for the full control effect; potency is read from the fitted curve at half-maximal effect.

VDR inh,compound
4.8%,CC(C)CN(CC(C)C)C(=O)Nc1cccc([N+](=O)[O-])c1
-9.6%,Cc1ccc(N(C(=O)CCC(=O)Nc2ccccn2)C(C(=O)NC(C)C)c2ccc(F)cc2)cc1 (stereo unspecified)
9.0%,Cc1ccc(S(=O)(=O)NCCNc2ccc([N+](=O)[O-])cc2C(F)(F)F)cc1
0.8%,COc1ccc(-c2nnc(SCC#N)o2)cc1
7.6%,c1ccc(N2CCN(Cc3nc4ccccc4[nH]3)CC2)nc1
79.4µM*,C=CCOc1ccc(/C=C2\SC(=S)N(C(C(=O)O)c3ccccc3)C2=O)cc1 (stereo unspecified)
-20.8%,O=[N+]([O-])c1ccc(C2Nc3cccc4cccc(c34)N2)cc1
-12.7%,COc1cc(C(=O)Oc2ccccc2/C=N/NC(=O)c2ccc(C)c(Cl)c2)cc(OC)c1OC
-7.8%,COc1ccc(NC(=O)CSc2nc3ccccc3c(=O)n2CCC(=O)N2CCCCC2)cc1
119.8%[activator],C=CCc1cc(C=O)cc(OC)c1OCc1c(Cl)cccc1Cl
1.0%,Cc1ccc(N2C(N)=NC(N)=NC23CCCC3)c(C)c1
-7.0%,CCN(c1ccccc1)S(=O)(=O)c1cc(C(=O)O)ccc1C
8.0%,Cc1cc(C)c2c(c1)c(C)cc1nnc(SCC(=O)c3ccc(F)cc3)n12
-3.3%,O=C(CCC(=O)N1CCOc2ccccc21)Nc1ccccc1Br
-1.8%,CN(CC(=O)NCCc1ccc(S(N)(=O)=O)cc1)CC(=O)Nc1ccc(Cl)c(C(F)(F)F)c1
-13.9%,O=C(c1cccs1)N1CCN(C(=O)c2cccs2)C1=S
-14.7%,CCOc1cc(C2Nc3ccccc3NC3=C2C(=O)CC(C)(C)C3)ccc1O (stereo unspecified)
7.3%,CCOC(=O)C1CCCN(C(=S)Nc2cccc(Cl)c2)C1 (stereo unspecified)
12.5%,O=C(COC(=O)c1cc(Br)ccc1Cl)NC1CCCC1
-0.7%,CCC(C)[C@H](NC(=O)NCc1ccco1)C(=O)O (stereo partly specified)
13.2%,O=c1c(CCc2ccccc2)nc2cnc(N3CCOCC3)nc2n1Cc1cccs1
-23.7%,Cc1noc(C)c1NC(=O)N(C)C[C@H]1Oc2ccc(NS(=O)(=O)c3ccc(F)cc3)cc2C(=O)N([C@H](C)CO)C[C@@H]1C
6.7%,C/C=C/c1ccc(OCCCCOc2ccc(OC)cc2)c(OC)c1
10.8%,COc1ccc(CNC(=O)CN2C(=O)CCn3nc(-c4cn(C)c5ccccc45)cc32)cc1
-26.5%,S=C(NCc1cccs1)Nc1cccc(Cl)c1Cl
14.0%,CC(=O)Cc1nsc(NC(=O)c2ccc(-c3ccc(Cl)c(Cl)c3)o2)n1
-29.4%,O=C(CSc1ccc(-c2cccs2)nn1)N1CCCCC1
4.1%,O=C(Nc1cc(Cl)cc(Cl)c1)c1ccc(F)c(S(=O)(=O)NC2CCCCC2)c1
-10.1%,Cc1ncoc1C(=O)NC1CC(C)(C)Cc2c1cnn2-c1ccccc1 (stereo unspecified)
4.1%,O=C(CSc1ncnc2c1sc1ccccc12)Nc1ccc(Br)cc1
-8.1%,CCOC(=O)[C@H](CCc1ccccc1)N[C@@H](C)C(=O)N1C(C(=O)O)C[C@@H]2CCC[C@@H]21 (stereo partly specified)
1.5%,CC1CCCC(C)N1S(=O)(=O)c1ccc(NC(=O)CCN2C(=O)C3CC=CCC3C2=O)cc1 (stereo unspecified)
1.4%,CCOC(=O)C1CCCN(C(=O)CCS(=O)(=O)c2cc3c(cc2Cl)NC(=O)CO3)C1 (stereo unspecified)
3.2%,Cc1ccc(Nc2nc(N)nc(COC(=O)c3ccc(Br)o3)n2)cc1
6.0%,Cc1ccsc1C(=O)NNC(=O)COc1ccc(Br)cc1
-7.0%,Cc1cccc(-c2nc(SCC(=O)Nc3ccc4c(c3)OCCO4)c(-c3ccccc3)[nH]2)c1
-11.6%,CC12COC3(C(=O)Nc4ccc([N+](=O)[O-])cc4)CC1CCC32C (stereo unspecified)
-10.9%,COC(=O)c1c(N)n(-c2ccc(NC(C)=O)cc2)c2nc3ccccc3nc12
-17.9%,C=C1C(C(=O)Nc2ccc(OCC)cc2)C1C(=O)Nc1ccc(OCC)cc1 (stereo unspecified)
6.3%,Cc1cccc(-n2c(N)cc(=O)nc2SCC(=O)Nc2ccc(F)cc2)c1C
6.4%,CCNC(=O)CCn1nc(-c2ccc(Cl)cc2)c2ccccc2c1=O
-13.1%,O=C(O)[C@H]1CN[C@H](C(=O)O)C1
8.9%,CC(=O)CCn1c(=O)n(CCC(C)=O)c(=O)n(CCC(C)=O)c1=O
14.4%,O=C(CC1C(=O)NCCN1C/C=C/c1ccccc1)NCCc1ccncc1 (stereo unspecified)
-24.8%,CC(=O)N1CCN(c2nc3ccc([N+](=O)[O-])cc3s2)CC1
-3.0%,NC1=NC(=O)/C(=C/c2cccc(-c3ccc(S(N)(=O)=O)cc3)c2)S1
5.3%,Cc1cccc(NC(=O)NNC(=O)c2cc(-c3ccccc3Cl)nc3ccccc23)c1
-7.8%,O=C(O)CC1c2ccccc2CCN1S(=O)(=O)c1cccs1 (stereo unspecified)
-23.9%,CCCCN(CCCC)CCNC(=O)CN1C(=O)COc2ccc(S(=O)(=O)N3CCC(C)CC3)cc21
7.6%,COc1ccc2c(-c3cccnc3)cc(=O)[nH]c2c1
1.1%,COc1ccc(C2(C)NC(=O)N(CC(=O)Nc3ccc4c(c3)OCO4)C2=O)cc1OC (stereo unspecified)
-3.6%,O=C(c1ccc(S(=O)(=O)N2CCCCCC2)cc1)N(c1ccccn1)C1CCCCC1
9.0%,COc1ccc(OC)c(C2C(C#N)=C(N)Oc3cc(C)[nH]c(=O)c32)c1 (stereo unspecified)
8.8%,COc1cccc(N2CCN(Cc3cc(=O)oc4cc(C)ccc34)CC2)c1
-2.6%,CCC(C)(C)n1nnnc1C(c1cccnc1)N1CCN(c2cccc(C(F)(F)F)c2)CC1 (stereo unspecified)
-7.9%,O=C(CNC(=S)NC(=O)c1ccco1)c1ccccc1
5.7%,Cc1ccc2[nH]c3c(c2c1)CCC3=O
-17.6%,COc1ccc(OC)c(NC(=O)CSc2nc3ccccc3c(=O)n2CC2CCCO2)c1 (stereo unspecified)
-2.5%,COc1cc2c(cc1NC(=O)Cc1ccc(C)cc1)oc1ccccc12
-14.6%,COc1cc2c(cc1NC(=O)CCC(=O)O)oc1ccccc12

Additional structures
VDR inh,compound
-14.0%,O=C(Nc1ccc(NC(=O)c2ccc(Cl)cc2Cl)cc1)c1cccs1
0.2%,O=C(NCc1ccc2c(c1)OCO2)C1CC(c2ccc(Cl)cc2)=NO1 (stereo unspecified)
-2.6%,COc1ccccc1NC(=O)C(C)OC(=O)Cc1n[nH]c(=O)c2ccccc12 (stereo unspecified)
-6.7%,CN(CCO)C(=O)CCC(=O)Nc1ccc(S(N)(=O)=O)cc1
-8.4%,COc1ccc(C)cc1NS(=O)(=O)c1ccc2c(c1)[C@H]1C=CC[C@H]1[C@@H](c1cccc(Cl)c1)N2
15.0%,CCc1ccc2c(c1)c1nnc(NN)nc1n2C
-5.6%,CCn1c(CNC(=O)c2cccc(C)c2)nnc1SCC(=O)NC1CCCC1
-14.9%,O=C(OCC(=O)c1ccc(Cl)s1)c1ccc(CO)cc1
-1.9%,Cc1ccc(NC(=O)C2CCCN(c3ncnc4onc(-c5ccc(F)cc5)c34)C2)c(Cl)c1 (stereo unspecified)
?,CC(C)C[C@@H](CNCC(=O)[C@H](CC(C)C)NC(=O)c1[nH]cnc1C(=O)N[C@H](CN)CC(C)C)NC(=O)c1nc[nH]c1C(=O)N[C@@H](Cc1ccccc1)C(=O)O
-20.8%,O=C(c1ccccc1F)N1CCN(c2ccccc2)CC1
5.5%,CCN(CC(=O)Nc1ccccc1C(F)(F)F)C(=O)CN1C(=O)NC2(CCCCC2)C1=O
-4.7%,Cc1ccc(NC(=O)c2ccc(Cl)c(S(=O)(=O)NCc3ccco3)c2)c(O)c1
-12.0%,COc1ccc(N2CC(NC(=O)c3ccc(S(=O)(=O)N4CCCCC4)cc3)CC2=O)cc1OC (stereo unspecified)
3.5%,CCOc1ccc(S(=O)(=O)NCCC(=O)N(CC)CC(=O)Nc2c(F)cccc2F)cc1

Nothing new here: three of the compounds above.
VDR inh,compound
-4.7%,Cc1ccc(NC(=O)c2ccc(Cl)c(S(=O)(=O)NCc3ccco3)c2)c(O)c1
-12.0%,COc1ccc(N2CC(NC(=O)c3ccc(S(=O)(=O)N4CCCCC4)cc3)CC2=O)cc1OC (stereo unspecified)
3.5%,CCOc1ccc(S(=O)(=O)NCCC(=O)N(CC)CC(=O)Nc2c(F)cccc2F)cc1

(more compounds)
VDR inh,compound
-2.1%,CC(C)C(=O)O/N=C1\CCS(=O)(=O)c2sccc21
-20.6%,Cc1c(C(=O)N2CCOCC2)c(S(=O)(=O)Nc2cccc(Br)c2)c(C)n1C
-6.2%,CC(=O)c1ccc(NC(=O)c2noc(C)c2[N+](=O)[O-])cc1
-0.8%,COc1cccc(-c2cc(C(=O)N3CCN(C(=O)c4ccco4)CC3)[nH]n2)c1
11.6%,CC1Cc2ccccc2N1C(=O)CSc1nc2ccc(NC(=O)COc3ccccc3)cc2s1 (stereo unspecified)
-1.6%,COC(=O)c1ccc(NS(=O)(=O)c2cc3c4c(c2)CCN4C(=O)CC3)cc1
-8.6%,CN(C)CCCN(C(=O)c1ccc(C(=O)c2ccccc2)cc1)c1nc2cc3c(cc2s1)OCCO3
4.4%,COC(=O)c1ccccc1NC(=O)CSc1nnc(-c2cccnc2)o1
7.3%,CCC(=O)c1ccc(OCC(O)CN2CCOCC2)cc1 (stereo unspecified)
-3.0%,COC(=O)[C@]1(Cc2ccccc2)N[C@H](CN(C)C(=O)Nc2ccc(OC)cc2)[C@@H]2C(=O)N(C)C(=O)[C@@H]21
3.9%,NC(=NCCc1ccccc1)NS(=O)(=O)c1ccccc1
-9.0%,O=C(Nc1cccnc1Cl)c1cc(-c2ccc(O)cc2)on1
-11.1%,CCOC(=O)C1(Cc2cccc(Cl)c2)CCCN(C(=O)c2cccc(C)n2)C1 (stereo unspecified)
-4.5%,O=c1cn[nH]c2ccc(Br)cc12
-5.8%,CC(C)CC(=O)NC(=S)Nc1ccc(S(=O)(=O)Nc2nccs2)cc1
4.1%,CCc1ccccc1NC(=O)CC(c1ccc(F)cc1)N1Cc2ccccc2C1=O (stereo unspecified)
19.6%,CCCn1nc(C(=O)NNC(=O)c2cc(S(=O)(=O)NC)ccc2Br)c2ccccc2c1=O
-11.6%,Cc1cccc(N(Cc2ccccc2)C(=O)c2ccc(S(C)(=O)=O)cc2)c1
-13.5%,CC1(C)CC(=O)/C(=C(\O)c2ccccc2)C(=NCCO)C1
-0.3%,CC(=O)OCC(OC(C)=O)C(OC(C)=O)C(OC(C)=O)C(=O)Nc1ccccc1 (stereo unspecified)
1.0%,CNc1ncnc(Sc2ccc(Cl)cc2)c1[N+](=O)[O-]
-14.9%,NC(=O)[C@@H]1CCCN1C(=O)[C@@H](Cc1cnc[nH]1)NC(=O)[C@@H]1CCC(=O)N1
-5.9%,CCOc1ccc2oc(C(=O)N3CCN(Cc4ccccc4)CC3)c(C)c2c1
4.4%,CCOc1ccc(CCNC(=O)c2cnc3c(-c4ccc(F)cc4)c(C)nn3c2C)cc1
-3.4%,Cc1ccc(S(=O)(=O)c2c(C)cc(C)nc2Cl)c(C)c1
15.8%,O=C(c1ccccc1F)N1CCN(c2ccccn2)CC1
-7.6%,O=C(NCc1ccc(F)cc1)C1CCCN1C(=O)Nc1ccc(F)cc1 (stereo unspecified)
9.8%,CCCn1c(CCc2ccccc2)nnc1SCC(=O)N1CCOCC1
6.8%,COCCNC(=O)c1cc(Sc2ccc(F)cc2F)nc2ccccc12
-25.2%,Nc1ccccc1C(=O)NC1CCCNC1=O (stereo unspecified)
3.5%,Cc1cc(C)n2c(SCC#N)nnc2n1
-19.4%,O=C(Cc1nc2ccccc2[nH]1)c1cccc([N+](=O)[O-])c1
13.7%,Cc1ccc(NC(=O)CN2C(=O)NC(C)(C3CC3)C2=O)c(C)c1 (stereo unspecified)
10.4%,C=COCCNC(=S)N1CCOCCOCCN(C(=S)NCCOC=C)CCOCCOCC1
-2.9%,COc1ccc(S(=O)(=O)N2CCNC(=O)C2)cc1Br
-11.8%,COc1cccc(N2CC(C(=O)Nc3nnc(SCC(=O)N4CCOCC4)s3)CC2=O)c1 (stereo unspecified)
-12.6%,O=C(CSc1ccc(S(=O)(=O)N2CCOCC2)cn1)Nc1ccc(OC(F)F)cc1
-12.0%,CCOC(=O)c1[nH]c2ccccc2c1NC(=O)C(C)(C)C
-0.7%,CC(C)N(C(=O)Cn1cc(SCC(N)=O)c2ccccc21)C(C)C

Of the compounds above, these have two or more sulfur atoms:
VDR inh,compound
79.4µM*,C=CCOc1ccc(/C=C2\SC(=S)N(C(C(=O)O)c3ccccc3)C2=O)cc1 (stereo unspecified)
-13.9%,O=C(c1cccs1)N1CCN(C(=O)c2cccs2)C1=S
-26.5%,S=C(NCc1cccs1)Nc1cccc(Cl)c1Cl
-29.4%,O=C(CSc1ccc(-c2cccs2)nn1)N1CCCCC1
4.1%,O=C(CSc1ncnc2c1sc1ccccc12)Nc1ccc(Br)cc1
-3.0%,NC1=NC(=O)/C(=C/c2cccc(-c3ccc(S(N)(=O)=O)cc3)c2)S1
-7.8%,O=C(O)CC1c2ccccc2CCN1S(=O)(=O)c1cccs1 (stereo unspecified)
-2.1%,CC(C)C(=O)O/N=C1\CCS(=O)(=O)c2sccc21
11.6%,CC1Cc2ccccc2N1C(=O)CSc1nc2ccc(NC(=O)COc3ccccc3)cc2s1 (stereo unspecified)
-5.8%,CC(C)CC(=O)NC(=S)Nc1ccc(S(=O)(=O)Nc2nccs2)cc1
10.4%,C=COCCNC(=S)N1CCOCCOCCN(C(=S)NCCOC=C)CCOCCOCC1
-11.8%,COc1cccc(N2CC(C(=O)Nc3nnc(SCC(=O)N4CCOCC4)s3)CC2=O)c1 (stereo unspecified)
-12.6%,O=C(CSc1ccc(S(=O)(=O)N2CCOCC2)cn1)Nc1ccc(OC(F)F)cc1

An excerpt. The share of hits here may be higher or lower than overall.
